Assay outcomes (PubChem)
Mtb hypoxia rep = inhibitors of hypoxia-regulated fluorescent reporter in Mycobacterium tuberculosis. AID 1159583. M. tuberculosis hypoxia-regulated fluorescent reporter, fluorescence. fluorescence inhibition, % (no concentration beside the values). actives 0.1% (n = 300,000);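 active means 35 to 45% if threefold the growth effect, above 45% if 1.5-fold the growth effect; inactive means the rest, general growth blockers included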;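 further: wells of about 50 µL received 100 nL stock; 0% = vehicle wells and 100% = reference inhibitor wells; whole bacteria with a GFP reporter of the hypoxia response; strong numbers were not always called active; many hits fall short of the cut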
ugtP null kill = kills S. aureus RN4220 lacking UgtP; S. aureus RN4220 ugtP deletion, OD600 growth, 16 h; some inactives read as strong as hits; actives 0.54% (n = 330,000); growth inhibition, % (no concentration beside the values);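 active means z-score under -3 and OD600 up to 0.15 on both plates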;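 further: plate controls were untreated wells for no effect and antibiotic for full effect; wells of about 80 µL received 100 nL stock; the first replicate is given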
BJeLR lethal = BJeLR cell viability loss; BJeLR (HRASV12) viability, CellTiter-Glo ATP luminescence, 48 h; reference of the scale not given here; inhibition, % (no concentration beside the values); actives 0.17% (n = 300,000);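 active means replicate mean above 50%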;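 further: 50 nL library stock added to about 25 µL; numbers are from one replicate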
PrP UTR inh = suppresses PrP 5' UTR mRNA reporter expression; cell-based PrP 5' UTR mRNA reporter, plate reader; inhibition, % (concentration not given with the values); actives 0.35% (n = 340,000); AID 488862;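 active means every replicate at 50% or more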;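 further: 0 = median of the neutral control wells; tested in H4 reporter cells; numbers are from one replicate; inactives centre near -14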
Bead autofluor = counter-screen for toxin protease inhibitors: compound fluorescence | AID 624483 | compound autofluorescence counterscreen, microsphere flow cytometry; hits give high values | fluorescence intensity (no concentration beside the values) | actives 3.1% (n = 360,000);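 active means at least 3 SD above the mean of all compounds, about 16000 in these data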;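 further: 100 nL of 1 mM stock went into each well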
RN4220 kill = S. aureus RN4220 growth inhibition; OD600, 16 h; inhibition, % (concentration not given with the values); actives 0.33% (n = 330,000); AID 1259311;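 active means z-score of -3 or lower and OD600 up to 0.18 on both plates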;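 further: plate controls were untreated cells for no effect and reference antibiotic for full effect; stock transfer was 100 nL into about 80 µL; one replicate is shown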
Mtb hypoxia rep growth = also measured in Mtb hypoxia rep; calls as there; growth inhibition, %; measured here: M. tuberculosis growth (absorbance);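 0% = vehicle and 100% = reference antibiotic; read after six days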
An asterisk follows results filed as active; x = no result given.

SMILES	Mtb hypoxia rep	Mtb hypoxia rep growth	ugtP null kill	BJeLR lethal	PrP UTR inh	Bead autofluor	RN4220 kill
CCCCC1CCC(C(=O)Nc2ccccc2)CC1 (configuration not stated)	12	7	0	-2	-13	16463*	0.4
COc1cccc(CNC(=O)C2CCCN2S(=O)(=O)c2ccc3c(c2)C(C)(C)C(=O)N3C)c1 (configuration not stated)	7	4	11	-6	6	5721	7.3
O=C(O)C1CC=CCC1C(=O)NNc1ccccc1 (configuration not stated)	7	0	6	-2	-12	4027	3.9
CC(=O)O[C@H]1[C@H](C)OC=C[C@@H]1OC(C)=O	x	x	x	-11	9	3985	x
CCS(=O)(=O)N1CCC(C(=O)Oc2ccccc2Cl)CC1	3	0	12	1	-25	4203	4.9
O=[N+]([O-])c1ccc2c(c1)oc1ccccc12	12	8	-7	-14	-14	3924	3.5
CCCCC(C(=O)O)C(C)CC(=O)NNC(=O)c1ccco1 (configuration not stated)	9	5	4	2	-19	4891	-2.1
O=S(=O)(c1ccc2c(c1)nc1n2CCC1)N1CCOCC1	-3	2	-5	-3	-19	11947	-2.9
Cc1ccc(NC(=O)c2ccccc2NC(=O)CCC(=O)O)cc1	-6	7	1	17	-28	2431	6.2
CCn1c(=N)n(CC(=O)OC)c2ccccc21	6	9	3	2	4	4374	1.3
Cc1ccc(NC(=O)c2ncn(CC(=O)N[C@H](C)c3cccc4ccccc34)n2)cc1C	4	6	-1	x	-31	4001	-3.6
CC(C)Oc1cccc(C(=O)NC2=NCCS2)c1	11	-4	6	-18	-86	4167	6.8
Cc1ccccc1NC(=S)N1CCC(C(=O)c2ccc(F)cc2)CC1	-1	2	2	-9	-7	6285	3.7
Cc1cc(NC(=O)CSc2ncc(C(F)(F)F)cc2Cl)no1	3	7	3	x	-18	3112	1.2
COc1ccc(N(CC(=O)NC2CCCCC2)C(=O)CCCC(=O)Nc2ccccn2)c(OC)c1	-11	8	-4	-5	-9	2714	1.4
N=C(N=C(N)N)N1CCc2ccccc21	15	9	4	-10	-7	3447	5.6
CC(O)(CS(=O)(=O)Cc1ccccc1)c1ccccc1Cl (configuration not stated)	3	1	0	7	-25	3755	3.8
CCc1cc(CNC(=O)CC2C(=O)NCCN2Cc2cccc(OC)c2)on1 (configuration not stated)	1	2	9	6	-2	2174	1.6
COc1cc2cnc(-c3ccsc3)c(-c3ccc(F)cc3)c2cc1OC	9	9	-3	x	-1	4063	4.8
CC1(C)Cc2c(c(N3CCCC3)nc3sc4c(N5CCNCC5)ncnc4c23)CO1	20	6	60	2	x	x	0.0
COc1ccc(-c2cccc(NC(=O)COc3ccc(Cl)cc3)c2)nn1	x	x	x	-7	-3	4259	x
COc1cc(C=NNC(=O)c2cccnc2)ccc1OCC(=O)Nc1c(C)cc(C)cc1C	-4	-5	6	x	x	x	5.4
Cc1cccc(CN2CCN(CC(=O)N3CCC4(CC3)OCCO4)C2=O)c1	10	8	-2	5	-22	9438	5.2
CCc1ccccc1NC(=O)Nc1cccn(Cc2ccccc2F)c1=O	5	9	11	-6	-1	4727	-3.0

Part of the list above, as a markdown table:
| Molecule | Mtb hypoxia rep | Mtb hypoxia rep growth | ugtP null kill | BJeLR lethal | PrP UTR inh | Bead autofluor | RN4220 kill |
| --- | --- | --- | --- | --- | --- | --- | --- |
| CCS(=O)(=O)N1CCC(C(=O)Oc2ccccc2Cl)CC1 | 3 | 0 | 12 | 1 | -25 | 4203 | 4.9 |
| CC(O)(CS(=O)(=O)Cc1ccccc1)c1ccccc1Cl (configuration not stated) | 3 | 1 | 0 | 7 | -25 | 3755 | 3.8 |

Among those listed so far, 2 have a thiophene ring, fused or not.
SMILES	Mtb hypoxia rep	Mtb hypoxia rep growth	ugtP null kill	BJeLR lethal	PrP UTR inh	Bead autofluor	RN4220 kill
COc1cc2cnc(-c3ccsc3)c(-c3ccc(F)cc3)c2cc1OC	9	9	-3	x	-1	4063	4.8
CC1(C)Cc2c(c(N3CCCC3)nc3sc4c(N5CCNCC5)ncnc4c23)CO1	20	6	60	2	x	x	0.0

(next part)
SMILES	Mtb hypoxia rep	Mtb hypoxia rep growth	ugtP null kill	BJeLR lethal	PrP UTR inh	Bead autofluor	RN4220 kill
Cc1cc(=O)oc2cc(OCC(=O)N3CC(C)OC(C)C3)ccc12 (configuration not stated)	x	x	6	3	x	x	0.3
CCCCC(=O)NC(=S)NNC(=O)CC#N	2	-2	7	-13	-14	7677	3.6
c1ccc(COc2cccc(CNn3cnnc3)c2)cc1	15	-9	6	-1	-34	5984	-0.2
CC1CCCN(C(=O)c2ccc(-c3ccccc3Cl)o2)C1 (configuration not stated)	10	15	-1	-2	-80	6154	5.5
CCC(CC)C(=O)c1c[nH]c(C(=O)NCc2cccs2)c1	6	10	3	-1	-51	4018	10
O=C1CCc2cc(S(=O)(=O)N3CCN(c4ccccc4F)CC3)ccc2N1	1	7	5	10	-9	8579	3.8
O=C1c2oc3ccc(Cl)cc3c(=O)c2C(c2ccco2)N1CCN1CCOCC1 (configuration not stated)	14	11	-6	-3	-9	6698	-12
C=CCn1c(CCCNC(=O)CCC)nc2ccccc21	1	14	-7	-8	-17	4350	-2.6
COc1ccc(C2CC(=O)C(C=NCCN3CCOCC3)=C(O)C2)cc1 (configuration not stated)	6	-5	4	-4	-13	3419	6.7
O=C(N[C@@H](Cc1ccccc1)C(=O)N1CCN(S(=O)(=O)c2cccc(F)c2)CC1)c1ccco1	11	11	6	x	-46	3583	9.1
COc1ccc(C=NNC(=O)c2ccco2)cc1Cn1nc(C)cc1C	5	10	5	x	x	x	1.8
Cc1ccc(C(=O)N2CCN(C(=O)C3CCCO3)CC2)cc1 (configuration not stated)	14	5	2	x	-19	4041	4.5
CC(=O)Oc1ccc(C(C)=NN2CCN(Cc3ccc(Cl)cc3)CC2)cc1	4	-1	11	x	x	x	-0.1
Cc1cc(Br)cc(Cl)c1OC(=O)c1cnccn1	-7	4	-3	-5	-6	5992	0.2
CCOC(=O)c1cnc2ccc(OCC)cc2c1N1CCN(c2ccccc2)CC1	19	22	-17	-7	0	4113	-1.6
CCN(CC)C(=O)c1ccccc1NS(C)(=O)=O	5	-7	0	-1	-33	2256	1.5
O=C(CN1CCCC1)Nc1ccccc1Sc1ccc(Cl)cc1	12	5	8	1	-20	3314	16
COc1ccc(/C=N/N=C2/C(=O)Nc3ccccc32)cc1O	x	x	x	-3	-1	3611	x
COc1cccc(OCC(=O)Nc2c3c(nn2-c2ccccc2)CS(=O)(=O)C3)c1	-9	-4	-6	-3	-6	6348	-2.8
O=C(c1ccc(NC(=O)C2(c3ccccc3)CCOCC2)cc1)N1CCOCC1	x	x	4	5	-7	3525	2.4
CCN(CC(=O)Nc1ccc(N2CCOCC2)cc1)Cc1nc2ccccc2c(=O)[nH]1	x	x	10	0	-15	2720	3.6
NC(=O)c1ccc(N=Cc2ccc([N+](=O)[O-])s2)cc1	-2	11	36	x	-11	2474	11
Cc1ccc(-c2nn(C(C)(C)C)c3ncnc(NS(=O)(=O)c4ccc([N+](=O)[O-])cc4)c23)cc1	-10	5	-3	-2	-9	4372	-3.2
Cc1ccc(S(=O)(=O)N2[C@@H](c3ccc(Br)cc3)C(C(=O)O)=CC[C@H]2c2cccc(C)c2)cc1	-4	-3	18	x	-5	4062	11
CSCCC(NC(N)=O)C(=O)N(C)CC(=O)Nc1ccc(C)cc1 (configuration not stated)	x	x	-7	1	2	3516	-0.9
CCOc1ccc(N2C(=O)CC(SCC(=O)O)C2=O)cc1 (configuration not stated)	x	x	x	-12	-31	4549	x
COc1ccc2cc(-c3ccsc3)ncc2c1	15	13	12	x	-61	3875	8.7
Cc1ccccc1OCCn1cnc2cc([N+](=O)[O-])ccc2c1=O	-19	0	-3	-14	-10	5670	-3.7
N#CCC(=O)N/N=C/c1c(-c2ccccc2)n(-c2ccccc2)c2ccccc12	x	x	x	-2	1	6260	x
CCOC(=O)CCc1c(C)nc(SCCN2CCCC2)c(C#N)c1C	1	1	0	-2	12	6759	0.7
CC(=O)Sc1nc(-c2ccccc2)[nH]c1S(=O)(=O)c1ccc(C)cc1	-6	5	2	8	x	x	5.5
CCOC(=O)N/N=C1\CCc2ccccc21	x	x	x	-2	-33	2432	x
Cc1nc(SC(C(N)=O)c2ccccc2)c(C#N)c(C)c1C (configuration not stated)	-1	-4	-2	-2	x	5549	2.0
CC(C)CN1CCC(=O)N([C@H](CN=[N+]=[N-])Cc2ccccc2)CC1	x	x	x	5	-9	4276	x
Cc1ccc(CN2CC(C(=O)NNC(=O)c3ccc(F)cc3)CC2=O)cc1 (configuration not stated)	0	-3	4	x	-24	9229	1.4
O=C1CSC(=O)N1CCOCCN1C(=O)CSC1=O	-7	-4	-6	4	-4	9875	0.1

Only Mtb hypoxia rep growth and PrP UTR inh, for some of the entries so far:
smiles	Mtb hypoxia rep growth	PrP UTR inh
COc1ccc2cc(-c3ccsc3)ncc2c1	13	-61
Cc1ccc(CN2CC(C(=O)NNC(=O)c3ccc(F)cc3)CC2=O)cc1 (configuration not stated)	-3	-24
CCOc1ccc(N2C(=O)CC(SCC(=O)O)C2=O)cc1 (configuration not stated)	x	-31
CC(C)CN1CCC(=O)N([C@H](CN=[N+]=[N-])Cc2ccccc2)CC1	x	-9

The listing continues.
SMILES	Mtb hypoxia rep	Mtb hypoxia rep growth	ugtP null kill	BJeLR lethal	PrP UTR inh	Bead autofluor	RN4220 kill
O=C(Nc1ccc2c(c1)OCCO2)c1ccccc1F	x	x	-2	12	-13	4662	4.1
COC(=O)COc1ccc(/C=C2/NC(=O)N(CC(=O)OC)C2=O)cc1	7	1	3	-3	-11	4295	5.2
N=c1c(S(=O)(=O)c2ccccc2)cc2c(=O)n3ccccc3nc2n1CCCN1CCOCC1	-5	-6	-2	4	-20	3900	3.1
CCc1cccc(NC(=O)Cn2cc3c(n2)CCCC3)c1	x	x	5	1	-21	5465	4.8
CC(=O)Nc1ccc(NC(=O)CCn2c(=O)oc3ccccc32)cc1	9	-2	8	-9	-25	3872	0.0
CCO[C@@H]1c2c(ccc3ccc(=O)oc23)OC(C)(C)[C@H]1O	6	-1	-1	x	-17	4239	-9.8
c1ccc2c(c1)nc1n2CC2CON(C3CCCCC3)C12 (configuration not stated)	12	11	8	-1	2	3108	5.2
N=C1SC(c2ccccc2)C(=O)N1c1ncc(Cc2ccccc2Cl)s1 (configuration not stated)	-10	-1	90*	13	-23	8435	81
CC1(C)C2CCC1(C)C(NC(=O)CCN1CCCCC1)C2 (configuration not stated)	4	-4	3	-5	-6	8866	4.2
Cc1ccc(NC(=O)c2ncn(CC(=O)N[C@H](CO)Cc3c[nH]c4ccccc34)n2)cc1C	-5	3	5	x	-18	2896	2.0
O=C(NCCc1c[nH]c2ccccc12)C1CCC(=O)N(CCc2cccc(F)c2)C1 (configuration not stated)	-3	7	-2	-5	-1	4418	4.2
O=C(/C=C/c1cn(-c2ccccc2)nc1-c1cccs1)NCCN1CCOCC1	17	8	0	-12	2	4564	4.5
CCN(CC(=O)NCc1cccs1)C(=O)c1cccc(S(=O)(=O)Nc2ccc(C)cc2)c1	-3	-1	6	-6	-4	6162	3.2
CC1(O)CC(c2ccc(Cl)cc2)=NN1C(=O)c1ccc(Cl)cc1 (configuration not stated)	-7	-2	20	-5	-25	3073	22
COC(=O)C(CC(=O)CNC(=O)c1ccccc1)NC(=O)c1ccccc1 (configuration not stated)	22	14	9	x	-24	3922	2.6
COc1ccc(Cl)cc1NC(=O)N1CCN(S(C)(=O)=O)CC1	5	4	2	7	-7	4111	-0.1
CCOc1ccc(OCCOCCn2ccnc2)cc1	x	x	14	7	-6	3573	-0.9
COc1cccc(NC(=O)C(Cc2ccccc2)n2cccc2)c1 (configuration not stated)	15	9	6	13	-10	5462	-1.3
Cc1c(C(=O)c2ccc(Cl)c(Cl)c2)cnc2cc3c(cc12)OCO3	9	4	-25	1	7	9915	7.2
Cc1ccc(N2C(=O)CC(Cc3ccc(Cl)cc3)C2=O)cc1 (configuration not stated)	-6	-7	4	3	-8	2990	-1.5
C[N+](C)(C)CCOP(=O)([O-])OC[C@H](O)CO	x	x	x	3	-10	5737	x
Cc1cccnc1NC(=O)Nc1ccc(F)cc1	x	x	-10	2	-38	2434	1.8
CCCC(=O)Nc1sc(C(=O)Nc2cccc(N)c2)c(C)c1C(=O)OC	13	13	7	-3	-31	3739	5.5
CCOC(=O)C1CCN(C(=O)CN2C(=O)c3cccnc3Oc3ccc(C)cc32)CC1	-1	3	1	-14	2	6166	1.0
CCOc1cc(CNCC2CCCN2CC)cc(Cl)c1OC (configuration not stated)	-9	2	9	13	-13	3198	5.0
O=S(=O)(c1ccc(Oc2ccc(Cl)cc2)c(S(=O)(=O)N2CCCCC2)c1)N1CCCCC1	5	8	-1	-3	-20	5619	-1.8
